# Source: PubChem (National Center for Advancing Translational Sciences (NCATS))
# D2 potentiator: potentiates the human D2 dopamine receptor allosterically. DiscoveRx D2 beta-arrestin cells, luminescence, 90 min; 100% = 57 uM dopamine signal. 360,000 compounds, 0.23% hits. P14416. AID 624464. potentiation, % (concentration not given with the values); active = potentiation of 50% or more; inconclusive = 30% to 50%; inactive = 30% or less;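 further: tested on top of an EC20 dose of dopamine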
# Target sequence (P14416 whole entry, looked up): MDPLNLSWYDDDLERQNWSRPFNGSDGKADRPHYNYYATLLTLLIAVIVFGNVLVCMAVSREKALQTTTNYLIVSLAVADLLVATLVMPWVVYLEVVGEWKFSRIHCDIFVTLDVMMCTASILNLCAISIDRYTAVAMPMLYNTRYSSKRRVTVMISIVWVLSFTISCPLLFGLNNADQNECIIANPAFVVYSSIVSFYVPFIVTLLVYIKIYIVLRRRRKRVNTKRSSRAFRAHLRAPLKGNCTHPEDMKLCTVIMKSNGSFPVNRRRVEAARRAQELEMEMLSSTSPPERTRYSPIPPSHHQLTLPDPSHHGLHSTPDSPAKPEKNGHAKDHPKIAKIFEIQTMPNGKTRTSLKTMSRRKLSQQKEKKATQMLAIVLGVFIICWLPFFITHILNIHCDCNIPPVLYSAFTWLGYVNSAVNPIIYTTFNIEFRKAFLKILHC
#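 PathHunter beta-arrestin assay in DiscoveRx D2 cells. Compounds were added with an EC20 of dopamine (50 nM final) for 90 min at 37 deg C. Luminescence was read 1 h after detection reagent, with 57 uM dopamine as the EC100 control.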
# D2 ag: activates the human D2 dopamine receptor | P14416 | DiscoveRx PathHunter D2 beta-arrestin, luminescence, 90 min; 100% = 57 uM dopamine signal | activation, % (test concentration not listed) | 360,000 compounds, 0.084% hits; in the data active = activation above about 40%; inconclusive = about 15% to 40%; inactive = below about 15%; further: compound concentration not given in the record; the text of the record calls up to 30% inactive
#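 Agonist mode: compounds alone added to overnight-plated D2 PathHunter cells for 90 min at 37 C, with 57 uM final dopamine (EC100) defining full response. Beta-arrestin recruitment detected by chemiluminescent reagent, read after 1 h at ambient temperature.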
# TRPML1 ag: agonists of human TRPML1 channel; TRPML1-expressing cells, Ca2+ dye fluorescence, FDSS; host cell line not named in the record; reference of the full effect not given here; Q9GZU1; AID 624414; activation, % (concentration not given with the values); 410,000 compounds, 0.12% hits; in the data active = activation above about 50%; inconclusive = about 30% to 50%; inactive = below about 30%; further: 0% is about no effect; the text of the record puts the active cut at 80%
# Target sequence (Q9GZU1 whole entry, looked up): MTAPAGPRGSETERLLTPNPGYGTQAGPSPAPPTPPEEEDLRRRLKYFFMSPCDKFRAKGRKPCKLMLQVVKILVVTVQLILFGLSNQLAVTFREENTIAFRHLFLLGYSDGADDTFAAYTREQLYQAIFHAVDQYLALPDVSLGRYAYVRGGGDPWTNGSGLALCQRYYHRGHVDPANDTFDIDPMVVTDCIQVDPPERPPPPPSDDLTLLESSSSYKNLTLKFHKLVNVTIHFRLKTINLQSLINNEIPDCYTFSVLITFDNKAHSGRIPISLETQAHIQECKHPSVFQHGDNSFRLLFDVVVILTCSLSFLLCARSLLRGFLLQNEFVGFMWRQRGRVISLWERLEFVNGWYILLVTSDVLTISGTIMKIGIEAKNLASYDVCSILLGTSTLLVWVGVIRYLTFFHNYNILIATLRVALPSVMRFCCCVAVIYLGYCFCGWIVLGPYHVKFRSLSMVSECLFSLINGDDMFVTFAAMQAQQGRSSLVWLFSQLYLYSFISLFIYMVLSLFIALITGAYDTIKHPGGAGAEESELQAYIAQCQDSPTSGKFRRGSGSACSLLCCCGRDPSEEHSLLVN
#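 Agonist activity was taken from a 110 s kinetic Ca2+ dye read on the FDSS after pinning compounds onto TRPML1-DL cells. The cells were seeded at 1,500/well with Tet inducer, incubated about 16 h, then dye-loaded at room temperature.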
# PINK1 expr mod: modulators of PINK1 expression; AID 624263; PINK1 immunofluorescence, high-content cytometry, 24 h; Potency, µM (top dose mostly 76.6 µM), for inactives: at the highest dose activation (PINK1 increase), usual class: activators; 410,000 compounds, 0.2% hits; active = well fitted activation curve with a large enough effect; inconclusive = small, poorly fitted or top-dose-only effect; inactive = flat fitted curve, though single readings scatter; cell line not stated here;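 further: potency means the concentration at half of the fitted maximal effect; % of control where 0% means no effect; nearly all actives have a fitted effect of over 65% in size; a mitochondrial uncoupler was the plate control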
#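 Fluorescence from anti-PINK1 antibody, together with nuclear and cell stains, was scanned on a laser-scanning cytometer. Before staining, stable-line cells were incubated 24 hours with compounds at 5 concentrations; primary antibody 12 h at 10 degrees C.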
# Six1-Eya2 inh: Six1/Eya2 interaction inhibition. AlphaScreen GST-Six1/His-Eya2 binding, biochemical; active compounds read low; control for the full effect not named in the record. Q15475+O00167. 360,000 compounds, 0.56% hits. activity change, % (test concentration not listed); in the data active = activity change below about -65%; inconclusive = about -30% to -65%; inactive = above about -30%; further: on the % scale 0 is the no-effect control and ±100 the full control effect
#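 Compounds are tested against tagged Six1 and Eya2 proteins bridged by glutathione donor and nickel acceptor beads; after a one-hour incubation at 37 °C without light, AlphaScreen emission is recorded.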
# TRPML1 blocker: blocks the human TRPML1 channel | Q9GZU1 | activity change, negative = inhibition, % (no concentration beside the values) | TRPML1-inducible cells, Ca2+ dye fluorescence, FDSS; active compounds read low; inhibition of EC80 agonist-evoked calcium signal | 390,000 compounds, 0.02% hits; in the data active means activity change below about -50%; inconclusive means about -30% to -50%; inactive means above about -30%;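 further: stimulus is agonist 54-4 at its EC80 concentration; on the % scale 0 is the no-effect control and ±100 the full control effect; compound concentration not given in the record; the text of the record puts the active cut at -80%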
#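 Tet-induced TRPML1-DL cells loaded with Ca8 no-wash calcium dye were read kinetically on FDSS. Compound addition was followed by EC80 agonist 54-4 (4 uM final); inhibition was read over 110 s.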
# Active calls of the source: *; ? = inconclusive; . = no result given; & = joins results of further samples; [ ] = dose if it differs, or a comment.
item	Structure	D2 potentiator	D2 ag	TRPML1 ag	PINK1 expr mod	Six1-Eya2 inh	TRPML1 blocker
1	O=C(CCCN=C1NS(=O)(=O)c2ccccc21)OCC(=O)N1CCc2ccccc21	-17	-2.5	-0.5	-1.1%	-4	35
2	OC(CN1CCCCC1)CN1CCCCC1	-4	0.1	-0.4	-1.5%	5	0
3	C/C=C(\C)CN1CCN(c2ccc(C)cc2)CC1	-23	-2.4	-0.8	-0.5%	-12	0
4	CCOC(=O)C[C@H]1c2ccc(C(F)(F)F)cc2S(=O)(=O)N1c1cccc(OC)c1	-9	-0.2	1.1&-0.8	?	-16	5
5	CSc1nc(C)c2c(n1)N(c1ccc(C(C)C)cc1)CC2	-10	-0.3	7.1	?	2	19
6	Cn1c(SCc2ccccn2)nnc1-c1ccccc1	-1	0.3	0.6	-1.8%	5	18
7	CCSc1nc2c(c(=O)[nH]1)C(c1ccncc1)C(C(=O)OC)=C(C)N2 (configuration not stated)	3	-1.4	3.8	2.6%	1	7
8	COC(=O)[C@@H](NC(=O)Nc1ccccc1F)C(C)C	-9	-4.9	1.1	2.1%[38.3 µM]	5	-8
9	COc1cc2cc(CN(C(=O)NC3CCCCC3)C3CCCC3)c(=O)[nH]c2cc1OC	19	-1.8	0.0	-2.0%	10	-2
10	CCc1ccc2c(c1)NC(=O)C2(C)Cc1ccc(OC(F)(F)F)cc1 (configuration not stated)	-3	-3.3	0.1	-1.4%	7	.
11	O=c1c2ccccc2n(Cc2cccc(Cl)c2)c(=O)n1CCc1ccccc1	.	.	-0.7	7.8%	.	-8
12	C=CCn1c(SCC(=O)NCC2CCCO2)nc2sc(CC)cc2c1=O (configuration not stated)	-3	-0.5	-0.8	0.3%	2	3
13	Cc1cccc(NC(=O)CN2C(=O)N/C(=C\c3cccn3-c3cccc(C(=O)O)c3)C2=O)c1	6	0.1	2.0	2.1%	-19	18
14	COc1ccc(OC)c(C(=O)c2ccc(C(=O)Nc3cccc4ccccc34)cc2)c1	-4	-4.0	0.6	7.6%	11	-5
15	Cc1ccc(-c2noc(CN(C(=O)CCN3C(=O)c4ccccc4C3=O)C(C)C)n2)cc1	3	-0.5	1.4	-0.4%[38.3 µM]	2	-10
16	Cc1oc2cc3oc(=O)ccc3cc2c1C	-2	0.3	0.4	0.6%	0	11
17	COc1ccccc1C(=O)NNC(=O)C(=O)NC1CCCCC1	-4	0.6	1.5	4.2%	15	-20
18	Nc1c2c(nc3sc4c(c13)CCCC4)-c1ccccc1CC2	-5	2.0	-0.1	1.4%	6	9
19	O=C(CP(=O)(c1ccccc1)c1ccccc1)N1CCCCC1	-10	-1.4	0.1	-0.6%	3	-2
20	Cc1cccc(-c2nnn(C/C(N)=N/O)n2)c1	-2	-4.6	-0.6	-0.4%	5	32
21	CC(OC(=O)c1nn(C)c(=O)c2ccccc12)C(=O)NCc1ccc2c(c1)OCO2 (configuration not stated)	4	-3.6	0.5	-1.4%	-6	1
22	Cc1ccc(OCC(=O)Nc2ccc(S(=O)(=O)N(C)C3CCN(C)CC3)cc2)c(C)c1	-18	-1.8	0.3	1.6%	0	0
23	N#CCC(=O)Nc1ccc(C(=O)NCC2(N3CCOCC3)CCCCC2)cc1	-2	-1.8	0.0	4.2%	-1	-8
24	CCCc1noc(-c2ccc(NCc3ccccc3OC)c([N+](=O)[O-])c2)n1	.	.	0.7	-0.1%	.	5
25	CCCCCCCCN1C(=O)[C@H](CC(=O)NCc2cccc3ccccc23)C[C@@]2(C(=O)OCC)CCCC=C12	.	.	7.7	11%	0	.

# The results go on.
item	Structure	D2 potentiator	D2 ag	TRPML1 ag	PINK1 expr mod	Six1-Eya2 inh	TRPML1 blocker
26	O=C(Cc1csc(-c2ccc(Cl)cc2)n1)Nc1cccc(S(=O)(=O)NC2=NCCC2)c1	0	5.7	1.7	0.5%	-26	23
27	C(=C\c1ccccc1)/C=N/Nc1nc(N2CCCCC2)nc(N2CCCCC2)n1	-2	-4.4	2.6	24%	-2	23
28	COC(=O)c1cc(Br)ccc1NC(=O)CSCc1c(C)noc1C	6	-0.6	1.8	0.8%	1	5
29	Cc1ccc2c(c1)c1c(c(=O)n(-c3cccc(Cl)c3)c(=O)n1C)n2C	.	.	0.6	-0.2%	.	2
30	Cc1cc(Cl)ccc1C(=O)C1CCCN(C(=O)CCN2CCCO2)C1 (configuration not stated)	0	0.7	-0.8	0.8%	7	-1
31	COc1ccc(CNS(=O)(=O)c2ccc3c(c2)NC(=O)CS3)cc1	-2	0.9	-0.6	-0.8%	3	-11
32	Cc1cc(C(=O)Nc2nnc(C3CCCCC3)s2)cs1	-3	-1.6	0.8	?	0	30
33	O=C1C2C3C=CC(O3)C2C(=O)N1Cc1ccncc1 (configuration not stated)	-2	3.3	1.0	0.2%	5	3
34	O=C(CCc1nnc2ccc(NCc3ccco3)nn12)N1CCCCC1	16	-2.0	-0.2	-1.4%	0	15
35	CCn1c(=O)cc(OCC(=O)NC2CCCCC2)c2ccccc21	-8	-0.7	1.6	1.7%	2	1
36	Cc1ccc(CNC(=O)c2ccc(N3CCCC3=O)cc2)cc1	0	-2.9	0.5	13%[38.3 µM]	4	8
37	Cc1nn2c(Nc3ccc(F)cc3)c3c(nc2c1-c1ccccc1)CCC3	4	-0.3	-0.6	?	3	7
38	CC(C)N1CC(COc2ccc(Cl)cc2Cl)OC1=O (configuration not stated)	-8	8.5	2.2	-0.3%	1	-6
39	CN(CCOc1ccccc1)C(=O)CNC(=O)c1ccc(C(C)(C)C)cc1	-8	-1.6	-0.3	0.8%	2	20
40	Cc1cc(/C=C2/NC(=O)NC2=O)c(C)n1-c1ccncc1	4	0.9	-0.8	-0.5%	-2	-15
41	COc1ccc(/C=N/n2c(C)nnc2C)c(OC)c1	-17	-3.1	-0.5	-0.7%	-2	5
42	O=S(=O)(NC1CCCCC1Nc1ccccc1)c1ccccc1 (configuration not stated)	9	0.9	0.2	0.0%	-1	10
43	COc1cc(CCN(C(=O)c2cc3ccccc3[nH]2)C(C)c2nc3ccccc3[nH]2)cc(OC)c1 (configuration not stated)	-3	-2.3	0.6	0.7%	-19	24
44	COc1ccnc(Oc2ccccc2)c1C(=O)N/C=N/OCc1ccccc1	-2	-1.1	2.2	12%	-4	7
45	Cc1cccc(NC(=O)CSc2nccn2-c2cccc(Cl)c2)c1C	.	.	2.8	-2.5%	.	27
46	O=C(Nc1cccc(Cl)c1)c1ccc(=O)[nH]n1	-4	0.1	-0.6	-1.1%	2	6
47	O=C(Nc1cc(-c2ccc(Cl)cc2)no1)c1ccc(F)cc1	.	.	-0.5	3.1%	.	17
48	Cc1nc(NC(=O)c2ccc3c(c2)OCCO3)ccc1Br	-13	-2.5	3.1	1.1%	5	3
49	CCc1nc2ccc(C(=O)Nc3cccc(OCC(=O)N(C)C)c3)cn2c1N(CC)CCOC	3	3.1	-1.0	-0.7%	3	.
50	COC(=O)c1sccc1NC(=O)CN1CCN(c2ccc(F)cc2)CC1	-1	-4.2	2.9	-1.2%	-17	24

# Following part.
item	Structure	D2 potentiator	D2 ag	TRPML1 ag	PINK1 expr mod	Six1-Eya2 inh	TRPML1 blocker
51	CCOC(=O)c1sc(N)c(C(=O)OC)c1C	0	-3.5	-1.4	1.5%	-2	1
52	Fc1cccc(F)c1-c1nc(-c2ccncc2)no1	0	6.3	0.4&-0.8	-1.9%&-1.5%	-2	9&20
53	Cc1ccc(S(=O)(=O)CC(=O)Nc2nnc(C(C)C)s2)cc1	-1	-3.3	0.0	5.5%	4	3
54	O=C(NCc1ccccc1)c1c(O)c2cccc3c2n(c1=O)CCC3	5	-1.8	1.1	11%	13	-20
55	COc1ccc(C)cc1S(=O)(=O)N1CCCC(C(=O)NCc2ccccn2)C1 (configuration not stated)	-21	-3.7	-0.4	0.7%	12	-5
56	CCOC(=O)C1=C(N)OC2=C(C(=O)CC(C)(C)C2)C1c1cc(CSc2nnnn2C)cs1 (configuration not stated)	4	-2.2	0.4	0.4%	-12	3
57	Brc1ccc(CSc2nnc(-c3ccccn3)n2Cc2ccco2)cc1	-5	-2.4	0.4	9.7%[38.3 µM]	-11	21
58	O=C(Nc1ccc(Cl)cc1)NN1CCCCCC1	-3	-1.5	-0.7	3.4%	-2	3
59	Cc1ccc(C(=O)N2CCN(CCNC(=O)C(=O)NC(C)C)CC2)cc1	-17	-5.0	0.0	0.9%	-2	2
60	Cc1nc2ccccn2c1-c1nnco1	17	-4.0	1.1	-2.3%	-2	-11
61	Cn1c(=O)c2c(ncn2CCOc2cccc(Br)c2)n(C)c1=O	0	11	-0.1	-0.9%	-13	52
62	CCN(C(=O)COC(=O)c1cc2c(s1)CCCC2)c1c(N)n(Cc2ccccc2)c(=O)[nH]c1=O	-5	3.3	1.3	5.2%	10	-8
63	CC(=O)OC1CC(C)(C)N(OC(=O)c2ccc(N)cc2)C(C)(C)C1	4	-1.2	0.5	8.0%[38.3 µM]	-6	-2
64	Cc1ccc(C(=O)CSc2nc(C)cc(C)c2C(N)=O)cc1	8	-0.7	-0.1	.	22	-2
65	COc1ccc(CCNC(=O)COC(=O)/C=C/c2ccc(OC)c(OC)c2)cc1	-2	-1.8	0.2	-1.4%	-1	1
66	O=C(c1ccc(Cn2c(=S)[nH]c3cc4c(cc3c2=O)OCO4)cc1)N1CCN(c2ccccc2)CC1	3	-1.0	-0.8	0.5%	-16	-20
67	COc1cccc(/C=N/NC(=O)CC(=O)NCCc2ccc(OC)c(OC)c2)c1	5	0.0	0.3	4.6%[38.3 µM]	-1	1
68	COc1ccc(CCNC(=O)CCCCCN2C(=O)c3ccccc3C2=O)cc1	-14	1.4	-1.3	-1.3%	4	0
69	CCCc1nnc(SCC(=O)Nc2ccc(OC)cc2)n1N	-9	-1.4	0.1	1.8%[38.3 µM]	4	-13
70	Cc1cccc(C(=O)NNC(=O)c2ccccc2[N+](=O)[O-])c1	0	-2.0	0.4	-0.3%	10	4
71	CC1=Nc2ccc(Br)cc2C(c2ccccc2)N1CC(=O)NN (configuration not stated)	-5	-6.2	-0.5	1.5%	-7	1
72	O=C(CCC(=O)c1ccc[nH]1)c1ccc(Cl)cc1	-12	-1.0	0.4	0.1%	-6	5
73	Cc1cccc(C(C)C)c1NC(=O)c1cc2ccccc2o1	-29	-3.2	4.0	1.7%	10	14
74	Cc1nc(S/C(C(=O)O)=C2/C(=O)Nc3ccccc32)n[nH]1	-16	-4.7	-0.9	1.4%	-10	18
75	CNC(=O)c1cc2c(ccc3ccccc32)o1	0	3.2	-0.8	2.0%	-9	-6
76	Cc1ccc(N2CCN(C(=O)c3c(C)oc4ncnc(N5CCCCC5)c34)CC2)c(C)c1	.	.	5.1	0.0%	.	-7
77	CCC(c1nnnn1-c1ccc2c(c1)OCCO2)N1CCN(c2ncccc2C(F)(F)F)CC1 (configuration not stated)	.	.	-0.9&-0.3	0.0%&-0.3%	-9&-1	.
